Ecoli growth – inhibitors of Escherichia coli growth | hit rate 0.21% among 330,000 | OD600 absorbance (concentration not given with the values) | OD600, 23 h; hits give low values;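 active means OD600 absorbance below the run mean of sample wells minus 3.6 SD, in any replicate, cut at about 0.56 in these data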;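 further: stock transfer was 300 nL into about 60 µL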
ALR inh – inhibitors of human sulfhydryl oxidase ALR | inhibition, % (test concentration not listed) | purified ALR, DTT oxidation, H2O2 HRP-luminol luminescence | P55789 | hit rate 3.8% among 290,000;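 active means mean and each replicate at 75% or more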;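 further: stock transfer was 7.5 nL into about 7.5 µL; 0% = neutral wells and 100% = wells with inactivated enzyme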
UCH37 inh – blocks the human deubiquitinase UCH37. Q9Y5K5. purified proteasome/UCH37, Ub-AMC cleavage fluorescence. inhibition, % (no concentration beside the values). hit rate 0.33% among 330,000;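 active means mean of two replicates above 20%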;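 further: 0% = compound-free wells with enzyme and 100% = wells lacking proteasome; stock transfer was 100 nL into about 20 µL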
Target sequence (Q9Y5K5 whole entry, looked up): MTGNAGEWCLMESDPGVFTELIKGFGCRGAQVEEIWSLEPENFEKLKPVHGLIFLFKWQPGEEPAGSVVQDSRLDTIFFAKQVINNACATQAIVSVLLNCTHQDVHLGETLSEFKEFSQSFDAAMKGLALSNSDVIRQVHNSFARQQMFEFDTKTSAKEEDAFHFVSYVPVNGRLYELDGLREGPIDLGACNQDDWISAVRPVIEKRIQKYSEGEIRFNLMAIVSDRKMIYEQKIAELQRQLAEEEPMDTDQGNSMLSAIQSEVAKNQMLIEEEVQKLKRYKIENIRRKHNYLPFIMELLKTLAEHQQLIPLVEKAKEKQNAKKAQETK
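system = Proteasome-associated human UCH37 deubiquitinase | amount = 0.15 nM proteasome as dispensed | medium = pH 7.4 Tris-HCl (50 mM) with ovalbumin, ATP-MgCl2, DTT | incubation = 30 min preincubation with enzyme, 25 min cleavage at room temperature | detection = AMC fluorescence 355/460 nm | read-out basis = percent inhibition | controls = no-proteasome and no-compound wells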
FGF22 binding – FGF22 (human) thermal shift binding; Q9HCT0; recombinant FGF22 thermal shift, SYPRO orange fluorescence; percent of sucrose octasulfate shift, DMSO zero; calls only at 9.99 µM; hit rate 1.5% among 340,000;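 active means melting point raised past a set limit in the mean and every replicate; three in four hits are not shown here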
Target sequence (Q9HCT0 whole entry, looked up): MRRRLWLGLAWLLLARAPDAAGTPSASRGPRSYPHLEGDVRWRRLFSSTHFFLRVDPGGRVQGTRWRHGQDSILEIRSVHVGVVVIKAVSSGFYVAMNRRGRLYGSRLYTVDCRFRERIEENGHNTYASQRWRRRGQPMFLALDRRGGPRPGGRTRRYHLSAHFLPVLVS
Ecoli rRNA inh – selective bacterial rRNA inhibition in E. coli | E. coli WT GFP vs humanized-ribosome RFP mutants, fluorescence, 24 h; hits give low values; DMSO median 0, no signal -100 | GFP signal change (wild-type ribosome), % (concentration not given with the values) | AID 720706 | hit rate 1.6% among 350,000;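 active means significant combined selectivity score with lowered wild-type GFP, culture density cut under 30%, mutant RFP and density less affected; inactive means any of these conditions unmet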; further: one replicate is shown; some compounds called inactive have numbers as strong as hits
Beta2AR agonist – activates human beta-2 adrenergic receptor causing internalization. P07550. Am2.2-beta2AR cells, FAP receptor internalization, flow cytometry; reference of the scale not given here. response, % (test concentration not listed). hit rate 0.43% among 340,000;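 active means response above a set limit, near 3 SD of response in nonfluorescent compounds, cut at about 42% in these data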;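 further: stock transfer was 100 nL into about 11 µL; a reference agonist was the positive control; negative values mostly stem from fluorescent compounds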
HNF4A DNA FP – change in binding of human HNF4 alpha to DNA | P41235 | HNF4a-FITC DNA binding, fluorescence polarization, 1 h | activity change, % at 10 µM | hit rate 0.3% among 360,000 | AID 1224865; in the data active means activity change above about 30%, passing the limit was not always enough;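 further: controls were the assay level and a saturating level of protein; the project sought stronger binding though the title names inhibitors; some compounds called inactive have numbers as strong as hits; positive values seem to mean higher polarization but the record does not say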
Target sequence (P41235 whole entry, looked up): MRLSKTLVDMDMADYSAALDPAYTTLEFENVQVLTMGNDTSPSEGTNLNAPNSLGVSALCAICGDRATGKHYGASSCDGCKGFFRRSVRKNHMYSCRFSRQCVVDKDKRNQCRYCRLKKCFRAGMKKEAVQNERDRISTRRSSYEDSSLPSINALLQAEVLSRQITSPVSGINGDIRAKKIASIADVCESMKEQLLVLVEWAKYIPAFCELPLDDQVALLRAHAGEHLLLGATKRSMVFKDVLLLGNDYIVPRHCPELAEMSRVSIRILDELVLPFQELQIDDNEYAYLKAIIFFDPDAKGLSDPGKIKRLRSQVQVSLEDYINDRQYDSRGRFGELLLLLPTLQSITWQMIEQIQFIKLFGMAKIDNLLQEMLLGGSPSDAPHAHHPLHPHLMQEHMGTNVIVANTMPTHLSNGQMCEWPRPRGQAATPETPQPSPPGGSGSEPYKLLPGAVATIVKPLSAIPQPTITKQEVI
Ecoli rRNA inh OD600 – further read-out of Ecoli rRNA inh, marked with its call; OD600 change, %; measured here: OD600 growth;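 optical density of the mix in the first replicate; 0 = DMSO median and -100 = no signal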
Ecoli rRNA inh RFP – further read-out of Ecoli rRNA inh, marked with its call; RFP signal change, %; measured here: RFP humanized mutant strains;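 first replicate; 0 = DMSO median and -100 = no signal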
* = called active by the depositor; i = inactive; . = no result given. The list is partial, so the mix of outcomes need not match the whole.

SMILES	Ecoli growth	ALR inh	UCH37 inh	FGF22 binding	Ecoli rRNA inh	Ecoli rRNA inh OD600	Ecoli rRNA inh RFP	Beta2AR agonist	HNF4A DNA FP
CCN(C(=O)COC(=O)c1ccc2ccccc2n1)c1c(N)n(Cc2ccccc2)c(=O)[nH]c1=O	0.66	.	2.6	i	16	14	2.0	-5	1.2
O=C(NC1CCN(C(=O)N2c3ccccc3Sc3ccccc32)CC1)c1ccccc1F	0.72	12	0.7	i	-20*	-11*	5.6*	1	-1.8
Cc1ccc(C)c(OCC(=O)Nc2ccc(C(=O)O)cc2NC(=O)COc2cc(C)ccc2C)c1	0.73	7	3.2	i	6	4	5.3	-3	1.4
N#Cc1ccc(C(=O)NNC(=O)c2cccc(S(=O)(=O)N3CCOCC3)c2)cc1	0.66	-2	2.6	i	1	14	-3.0	-2	1.0
CC(=O)c1ccc(Nc2nc(C(N)Cc3ccc(N)cc3)cs2)cc1 (stereo not drawn)	.	.	.	i	14	7	2.5	.	2.4
COCCCNc1nc(N)c([N+](=O)[O-])c(NCc2ccccc2)n1	0.66	.	8.5	i	17	10	0.6	1	6.6
CC(CNC(=O)C(C)(C)C)NC(=O)C(C)(C)C (stereo not drawn)	0.68	.	-0.9	i	.	.	.	-5	0.1
CCOC(=O)c1sc(SC)c2c1CCC/C2=N/OC	.	.	.	i	.	.	.	0	4.1
CCOc1cc(CNCCCN2CCOCC2)cc(Br)c1OCc1ccccc1Cl	0.57	-33	11	i	-52	-81	-32	30	2.0
CC1(C)Cc2nc(-c3ccccc3)n3cnnc3c2CO1	0.76	-8	-0.1	.	.	.	.	2	1.5
COCCN(CCOC)S(=O)(=O)c1ccc(C(=O)Nc2nc(-c3ccncc3)cs2)cc1	0.7	-1	-59	.	.	.	.	7	1.8
O=C(NC(=S)Nc1ccccc1N1CCOCC1)c1ccc(-c2cccc(Cl)c2)o1	0.73	-1	-4.6	.	.	.	.	9	-2.4
COc1ccccc1-c1nnc(SCC(=O)NC2CCS(=O)(=O)C2)n1N (stereo not drawn)	0.71	-2	0.5	i	17	14	-3.6	-1	-0.4
O=C(Nc1c(-c2ccccc2)[nH][nH]c1=O)c1cccc(C(F)(F)F)c1	.	.	.	i	2	-3	-7.6	.	4.2
N#CC1(C#N)C(C(N)=O)C1c1ccccc1 (stereo not drawn)	0.72	65	5.4	.	.	.	.	-9	8.2
CCn1c(CSc2nc3ccccc3s2)nnc1SCC(=O)OC(C)(C)C	0.63	-9	-5.9	.	.	.	.	-19	-0.9
CCCCCOC(=O)C(C)Sc1n[nH]c(=O)[nH]c1=O (stereo not drawn)	0.7	13	-1.5	i	15	13	3.6	-2	2.7
O=C1N(Cc2cccnc2)C[C@@H]2C[C@@H](c3ccc(-c4ccccc4)cc3)N3CCC[C@@]123	0.68	-7	0.2	i	-16	-22	1.2	2	19
CCOc1cc2c(C#N)c(N3CCNCC3)nc(N)c2c(N)n1	0.7	.	-288	.	.	.	.	3	3.2
Cc1ccc(S(=O)(=O)N(C)C)cc1-n1c(SCC(=O)Nc2ccc(F)cc2Cl)nc2ccccc2c1=O	0.7	.	4.9	.	.	.	.	-15	1.1
Cc1cccc(NS(=O)(=O)c2cccc(C(=O)NCc3ccccc3CN3CCOCC3)c2)c1	0.7	-5	5.4	i	.	.	.	-1	-2.1
CN(CCc1ccccc1)C(=O)c1ccc(NC(=O)Cc2ccc(NC(=O)C3CCN(C(=O)C4CCCCC4)CC3)cc2)cc1	0.71	.	5.0	i	-9	-7	-0.4	2	0.7
CC1CCN(C(=O)Cn2nnc(-c3cccs3)n2)CC1	0.7	-1	2.5	i	4	1	2.0	-14	5.6
O=C(O)CN1C(=O)C=CC1=O	.	.	.	i	6	11	-0.7	.	-5.0
OC(COc1cccc2ccccc12)CN1CCN(c2ccccn2)CC1 (stereo not drawn)	0.7	-21	1.5	.	.	.	.	13	-0.6
CCN1/C(=C/C(=S)Nc2ccccc2)Sc2ccccc21	0.66	44	4.6	i	-3	7	6.3	7	2.6
CC(C)Cc1nnc(NC(=O)c2cc([N+](=O)[O-])ccc2N2CCOCC2)s1	0.71	-5	5.3	i	-9	1	0.2	-7	0.9
N#CCCN(Cc1cccnc1)C(=O)c1sc2cc(F)ccc2c1Cl	0.69	0	4.6	i	-8	-9	-0.5	-11	5.2
Cc1ccc(CSCCNS(=O)(=O)c2ccccc2)cc1	0.68	.	1.6	.	.	.	.	11	1.4
CC(C)COc1cc(=O)[nH]c(SCC(C)C)n1	0.74	-14	4.1	.	.	.	.	10	-2.0
Cc1cccc(N2CCN(C(=O)c3ccc4c(c3)OCCO4)CC2C)c1 (stereo not drawn)	0.73	24	5.9	i	-4	-8	-0.4	6	3.2
CNC(=S)Nc1ccc([N+](=O)[O-])cc1	0.63	-8	8.6	i	-8	-2	0.8	2	0.9
CC(=O)Nc1cccc(NC(=O)c2cc3ccccc3o2)c1	0.67	-10	4.5	.	.	.	.	-4	2.9
c1ccc(-n2cccc2CNC2CCCCC2)cc1	0.65	3	1.6	.	.	.	.	.	.
COC(=O)c1ccc(COC(=O)C(CCS(C)(=O)=O)N2C(=O)c3ccccc3C2=O)cc1 (stereo not drawn)	0.69	-22	1.3	.	.	.	.	-2	3.3
CC1(C)CC(=O)C=C(C(=O)N2CCCC(C(=O)c3cccc(C(F)(F)F)c3)C2)O1 (stereo not drawn)	0.67	0	0.8	i	-2	1	0.6	6	0.5
Cc1ccnc(NC(=O)c2ccc(Br)s2)c1	0.63	2	2.6	i	-2	-14	-1.0	-13	2.5
CCC(=O)c1ccccc1OCCCn1cncn1	0.72	4	1.1	.	.	.	.	0	-0.6
CCC(C)(C)C1CCc2[nH]nc(C(=O)NCC3CC3)c2C1 (stereo not drawn)	0.68	-3	-0.6	i	4	-5	7.1	-19	0.6
Cc1cccc(CSC2=CS(=O)(=O)c3ccccc3N2)c1	0.75	.	4.9	.	.	.	.	5	-2.1
Cc1ccc(S(=O)(=O)/C(C#N)=C/c2c(N3CC(C)OC(C)C3)nc3c(C)cccn3c2=O)cc1 (stereo not drawn)	0.68	-16	3.4	.	.	.	.	19	5.7
CNC(=O)OCc1nc(SSC(C)(C)C)n(C)c1COC(=O)NC	.	.	.	i	10	14	2.6	-2	1.1
N#CC1C(=O)NC(N2CCN(c3ccccc3)CC2)=NC12CCCCC2 (stereo not drawn)	0.68	.	1.5	.	.	.	.	3	-0.3
Cc1ccc(CNC(=O)CS(=O)(=O)c2cn(CC(=O)N3CCOCC3)c3ccccc23)cc1	0.68	-2	0.5	i	-2	4	-0.8	5	1.9
CN1C(=O)C2(c3ccccc31)c1c(oc3ccccc3c1=O)C(=O)N2CCCO (stereo not drawn)	0.73	.	4.8	i	6	14	0.3	-5	3.5
COc1ccc(Cc2nc(C)cc(Cl)n2)cc1[N+](=O)[O-]	0.6	4	7.8	i	9	4	2.0	-6	1.5
Cn1c(=O)c2cn(Cc3ccc(Cl)cc3)cc2n(C)c1=O	0.71	-4	4.1	.	.	.	.	-2	-3.8
Brc1ccc2nc(-c3c[nH]c4ccccc34)cn2c1	0.62	.	-13	i	-1	2	0.6	14	12
COc1ccc(NC(=O)N2CCC(C(=O)c3ccc(F)cc3)CC2)cc1	0.7	-12	2.5	.	.	.	.	12	5.3
COc1ccc(/C=C/C(=O)NC(=S)NNC(=O)c2cccnc2)cc1	0.67	8	7.0	.	.	.	.	2	2.2
CC(C)Nc1nc(-c2ccccc2)nc(-n2ccnc2)n1	0.73	-3	0.6	.	.	.	.	-11	4.7
Cc1ccc(OCC(=O)Nc2sc3c(c2C#N)CCC3)cc1C	0.72	-8	2.3	.	.	.	.	0	6.3
Cc1ccc(-c2nc3ccccc3c(C(=O)NCc3cccs3)c2C)cc1	0.76	-10	5.5	.	.	.	.	10	1.4
CC(=O)N(Cc1cc(=O)[nH]c2ccccc12)c1cccc(C)c1	0.75	0	-2.3	.	.	.	.	2	3.1
Cc1cccc(N2CCN(C(=O)c3csc4ccccc34)CC2C)c1 (stereo not drawn)	0.67	17	-0.6	.	.	.	.	0	-6.5
O=C(C(=O)N1CCOCC1)c1cn(CC(=O)N2CCc3ccccc3C2)c2ccccc12	0.71	-9	-0.4	i	2	1	-2.3	-3	-0.2
COc1ccc(N2CCN(CCCn3cnc4c(OC)ncnc43)CC2)cc1	.	.	.	i	6	17	-2.5	.	-1.2
Cn1ncc(N2CCN(S(=O)(=O)c3ccc(Br)cc3)CC2)c(Cl)c1=O	0.64	-16	2.8	i	10	10	0.9	-2	1.6
CCOC(=O)C1=C(CC)Nc2ccccc2N/C1=N\S(=O)(=O)c1ccccc1F	0.7	3	4.1	i	-4	-22	0.2	-6	-0.7
CCOc1ccc(N=C(NC#N)SCC(=O)NC2CC2)cc1	0.67	22	3.0	.	.	.	.	4	2.6

Overlap with the part before: 7 compounds, then new ones.
SMILES	Ecoli growth	ALR inh	UCH37 inh	FGF22 binding	Ecoli rRNA inh	Ecoli rRNA inh OD600	Ecoli rRNA inh RFP	Beta2AR agonist	HNF4A DNA FP
CC(=O)N(Cc1cc(=O)[nH]c2ccccc12)c1cccc(C)c1	0.75	0	-2.3	.	.	.	.	2	3.1
Cc1cccc(N2CCN(C(=O)c3csc4ccccc34)CC2C)c1 (stereo not drawn)	0.67	17	-0.6	.	.	.	.	0	-6.5
O=C(C(=O)N1CCOCC1)c1cn(CC(=O)N2CCc3ccccc3C2)c2ccccc12	0.71	-9	-0.4	i	2	1	-2.3	-3	-0.2
COc1ccc(N2CCN(CCCn3cnc4c(OC)ncnc43)CC2)cc1	.	.	.	i	6	17	-2.5	.	-1.2
Cn1ncc(N2CCN(S(=O)(=O)c3ccc(Br)cc3)CC2)c(Cl)c1=O	0.64	-16	2.8	i	10	10	0.9	-2	1.6
CCOC(=O)C1=C(CC)Nc2ccccc2N/C1=N\S(=O)(=O)c1ccccc1F	0.7	3	4.1	i	-4	-22	0.2	-6	-0.7
CCOc1ccc(N=C(NC#N)SCC(=O)NC2CC2)cc1	0.67	22	3.0	.	.	.	.	4	2.6
O=C(CCCOc1ccccc1)N1CCN(S(=O)(=O)c2ccc(Cl)cc2)CC1	0.69	1	4.7	i	9	10	-2.0	7	2.8
O=C(Nc1cccc(Cl)c1N1CCOCC1)c1ccc(Br)o1	0.69	5	2.1	i	3	6	-1.5	-1	2.7
Cc1cccc2c(=O)c(-c3ccc(Cl)cc3)c(NC(=O)c3ccco3)oc12	0.69	1	-1.5	i	0	-6	0.8	-8	1.9
CSc1ccc(C(=O)C2CCCN(C(=O)CN3CCOC3=O)C2)cc1 (stereo not drawn)	0.73	-9	6.5	i	1	3	-0.2	4	-4.2
COc1cccc(-n2c(CN3CCN(c4ccc(C)cc4)C(C)C3)nc3ccc([N+](=O)[O-])cc3c2=O)c1 (stereo not drawn)	.	-5	.	i	13	4	-0.8	-12	-1.0
O=C(OCC(=O)N1CCCc2ccccc21)c1ccccc1OC(F)F	0.69	17	0.6	i	-12	-10	1.8	8	1.0
CCOC(=O)c1ccccc1NC(=O)CN1C(=O)CCS(=O)(=O)c2ccccc21	0.72	.	0.0	.	.	.	.	-1	0.6
CCN(CC)S(=O)(=O)c1ccc(C(=O)NCC2CCCCC2)cc1	0.62	-10	1.8	i	-6	-21	-3.9	-5	-1.3

Compound activity: PubChem, several laboratories
